# miR-21 FLuc: miR-21 reporter, rising signal. Potency, µM (highest dose often 38.3 µM), for the others: at the highest dose reporter change, positive = more light. AID 2288. 340,000 tested, under 10 active. HeLa miR-21 FLuc reporter, luciferase, 48 h; active = well fitted rising curve with a large enough effect; inconclusive = small, poorly fitted or top-dose-only effect; inactive = no such curve, though single readings can be large or run the other way;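 note: % of control where 0% means no effect; miR-21 action dims this reporter so a rising signal means less miR-21 action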
#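 Compounds were titrated across several concentrations (up to approximately 40 uM) and incubated 48 hours with HeLa miR-21-FLuc reporter cells (miR-21 target sequence downstream of FLuc, endogenous miR-21). Readout was firefly luciferase luminescence after lytic detection reagent.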
# Rango complex inh: Rango-importin beta binding inhibition; Q14974; Potency, µM (doses to about 92.2 µM), inactives show top-dose inhibition of complex formation; 0.031% of 340,000 active; Rango CFP/YFP FRET sensor + importin beta, 45 min; active = rising FRET ratio curve, often small or poorly fitted; inconclusive = mostly compound fluorescence or quenching in the first reads; inactive = flat curves in all reads;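 note: potency is the fitted concentration of half-maximal effect; 0% = DMSO wells and 100% = buffer wells lacking importin beta; nearly all actives have a fitted effect of over 15% in size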
# Target sequence (Q14974 whole entry, looked up): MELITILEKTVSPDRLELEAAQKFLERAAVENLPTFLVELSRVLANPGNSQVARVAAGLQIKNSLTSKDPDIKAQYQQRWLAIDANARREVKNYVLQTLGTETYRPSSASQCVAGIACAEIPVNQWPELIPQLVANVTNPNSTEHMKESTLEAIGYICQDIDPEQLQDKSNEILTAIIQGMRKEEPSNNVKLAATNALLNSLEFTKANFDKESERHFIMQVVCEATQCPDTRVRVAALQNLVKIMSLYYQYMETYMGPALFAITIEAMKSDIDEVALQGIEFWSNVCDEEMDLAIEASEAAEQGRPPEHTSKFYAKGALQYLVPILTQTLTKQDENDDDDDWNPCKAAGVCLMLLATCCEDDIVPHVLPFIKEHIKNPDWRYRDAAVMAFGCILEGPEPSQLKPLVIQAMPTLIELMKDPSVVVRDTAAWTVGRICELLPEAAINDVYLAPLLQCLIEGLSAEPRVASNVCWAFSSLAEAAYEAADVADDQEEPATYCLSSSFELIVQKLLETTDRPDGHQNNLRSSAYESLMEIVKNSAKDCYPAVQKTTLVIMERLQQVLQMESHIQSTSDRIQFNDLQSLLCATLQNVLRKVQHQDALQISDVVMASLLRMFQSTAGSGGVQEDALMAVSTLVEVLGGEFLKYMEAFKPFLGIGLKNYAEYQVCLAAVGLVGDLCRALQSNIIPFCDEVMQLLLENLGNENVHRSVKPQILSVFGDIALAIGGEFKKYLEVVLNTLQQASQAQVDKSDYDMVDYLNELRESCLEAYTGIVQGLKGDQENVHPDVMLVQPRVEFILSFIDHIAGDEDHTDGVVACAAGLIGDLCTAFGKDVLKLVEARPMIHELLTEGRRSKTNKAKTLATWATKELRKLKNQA
#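 FRET biosensor (snurportin 1 IBB flanked by EYFP and cerulean), 50 nM, with compound 5 min, then 0.125 microM importin beta in PBS, 1 mM DTT, 0.02% Tween-20, 0.1% BSA. CFP/YFP ratio read after 45 min at room temperature; pre-read flags interference.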
# Rango release inh: inhibitors of RanGTP-induced Rango-importin beta complex dissociation; O95149+P62826; Biochemical FRET Rango-importin beta, RanGTP-induced dissociation; Potency, µM (series often up to 46.1 µM), inactives show at the top dose activity change, negative = inhibition; 0.071% of 340,000 active; AID 540253; active means falling FRET ratio curve, often poorly fitted, with flat reads before Ran was added; inconclusive means other falling curves, or compound fluorescence or quenching; inactive means flat or rising ratio curve;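 note: potency is the fitted concentration of half-maximal effect; % of control where 0% means no effect; nearly all actives have a fitted effect of over 45% in size; -100% = wells without RanGTP and RCC1; the record marks most hits as doubtful in a second field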
#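 Rango FRET biosensor (snurportin-1 IBB flanked by N-terminal EYFP and C-terminal CFP10) at 0.1 uM, with 0.25 uM importin beta in PBS, 1mM DTT, 0.02% Tween-20, 0.1% BSA. 0.6 uM Ran, 2mM GTP and 0.2 uM RCC1 were then added for 45 min at room temperature. Inhibition read as loss of FRET rise.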
# GLA inh pH 4.5: blocks human alpha-galactosidase A at pH 4.5. P06280. purified enzyme, 4-MU-alpha-Gal fluorescence, pH 4.5. activity change, negative = inhibition, % at 105 µM. 230,000 tested, under 10 active. AID 1467; inconclusive = small, poorly fitted or top-dose-only inhibition, or a rising curve; inactive = flat fitted curve, though single readings scatter; no compound was filed as active;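 note: 0% = full activity with enzyme and -100% = basal without enzyme; dose as in the result columns while the protocol names 77 µM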
# The depositor's hits bear a star; ? = inconclusive; · = no result given; & = joins results of further samples. Some of the compounds tested; count on the stated rates, not on these rows.
SMILES	Rango release inh	Rango complex inh	GLA inh pH 4.5	miR-21 FLuc
Cc1nn(-c2ccccc2)c2c1C(=O)N(c1ccccc1)C(=O)C(C)(C)C2	6%	-0.4%	1	-7%
O=C(O)CC/C(=N\NC(=O)c1ccncc1)c1ccccc1	-9%	3.9%	·	0%
CCOC(=O)c1ccc(Oc2ccc(C(F)(F)F)cn2)cc1	17%	-3.3%	0	-10%
COc1cccc(NC(=O)N2CCCC2C(=O)NC2CC2)c1 (stereo not given)	1%	-2.2%	3	-2%
O=C(Cn1nc(Cc2cccnc2)c2ccccc2c1=O)Nc1cccnc1Cl	3%	-1.0%	0	-9%
CCS(=O)(=O)c1nc(S(=O)(=O)c2ccc(Cl)cc2)c(NCc2ccccn2)s1	5%	0.2%	-9	1%
CCCc1nc(SCC(=O)NCC2CCCO2)c2c(=O)n(C)c(=O)n(C)c2n1 (stereo not given)	-14%	6.0%	·	2%
CCN(CC)C(=O)CSc1nc(O)c(Cc2ccc(OC)cc2)c(=O)[nH]1	-1%	-0.2%	·	-1%
CCc1ccccc1NC(=O)CSc1ncn[nH]1	9%	0.1%	1	-7%
O=C(COC(=O)c1cc(S(=O)(=O)Nc2ccccc2Cl)ccc1O)Nc1nc2ccccc2s1	5%	0.5%	3	-8%
O=C(N/N=C/c1cccs1)c1n[nH]c2c1CCC2	27%	5.7%	11	6%
CCOc1ccc(CC(=O)Nc2nccs2)cc1	-7%	-0.9%	4	1%
O=C(CSc1ncn[nH]1)Nc1ccccc1Sc1ccccc1	0%	1.1%	-1	7%
NNc1ccc2nncn2n1	1%	-4.2%	-10	-8%
COc1ccc(NC2=NC(=S)N(c3ccccc3C)C23CCCCC3)cc1	17%	0.5%	-3	5%
Cc1ccc(S(=O)(=O)NNC(=O)c2cnn(-c3ccccc3)c2-n2cccc2)cc1	-7%	5.9%	-4	0%
Oc1[nH]c2ccccc2c1N=Nc1ccccc1	?	?	-12	-49%
COc1ccc(C(C(N)=O)c2ncc(C(F)(F)F)cc2Cl)cc1 (stereo not given)	-3%	2.3%	5	4%
Cc1ccc2nc(SCC(=O)NCc3ccc4c(c3)OCO4)nc(=O)n2c1	10%	-3.0%	·	·
Nc1nc2nc(-c3ccc(OCc4ccccc4)cc3)cc(C(F)(F)F)n2n1	?	?	?	-1%
CCC1Oc2ccc(C)cc2N(CC(=O)N(Cc2cccnc2)Cc2ccc(C)o2)C1=O (stereo not given)	13%	-1.5%	-2	13%
CCNC(=O)CC1C(=O)N(c2ccc(C)cc2)C(=O)N1CCOC (stereo not given)	32%	0.0%	·	-1%&-3%
CC1(C)CC(=O)C=C(NCCN2CCNCC2)C1	9%	-0.6%	-8	-4%
COc1cc(C(=S)N2CCCCC2)ccc1O	-1%	-5.1%	-4	-1%
CNc1oc(-c2ccc(Cl)cc2)nc1P(=O)(c1ccccc1)c1ccccc1	0%	-0.6%	-7	-1%

# 2 of these compounds in a different format:
Rango release inh,Rango complex inh,GLA inh pH 4.5,miR-21 FLuc,Molecule
?,?,?,-1%,Nc1nc2nc(-c3ccc(OCc4ccccc4)cc3)cc(C(F)(F)F)n2n1
13%,-1.5%,-2,13%,CCC1Oc2ccc(C)cc2N(CC(=O)N(Cc2cccnc2)Cc2ccc(C)o2)C1=O (stereo not given)

# (next part)
SMILES	Rango release inh	Rango complex inh	GLA inh pH 4.5	miR-21 FLuc
COc1ccc(C2N=C(c3ccccc3)C(C)(C)N2O)cc1OC (stereo not given)	0%	-2.2%	1	-18%
COc1ccc(C(=O)NCC(=O)O)cc1	-15%	1.2%	-6	-1%
O=C(c1cccc2cccc(O)c12)N1CCCCC1	10%	0.1%	0	-8%
Cc1ccc(S(=O)(=O)Nc2ccc3c(c2)nc(CCN2CCCC2)n3C)cc1	14%	?	·	15%
CN(c1cccc(NS(=O)(=O)c2ccccc2)c1)S(C)(=O)=O	7%	-5.2%	-3	-1%
O=C(NC1CCCCC1)C1CCN(c2cnccn2)CC1	2%	2.0%	3	-5%
COc1ccc(-c2cc(C)no2)cc1S(=O)(=O)Nc1ccccc1	-1%	-0.9%	·	12%
C=C(C)Cn1c(SCCN2CCOCC2)nc2c1c(=O)[nH]c(=O)n2C	8%	-1.5%	8	0%
CCCn1nnc(NC(=O)c2ccc(Br)o2)n1	51%	4.7%	3	-18%
O=C(N/C(=C/c1ccco1)C(=O)N1CCCC1)c1cccs1	-15%	-0.4%	0	-2%
COC(=O)CSc1nnc(NC(=O)C2CC(=O)N(c3ccc(F)cc3)C2)s1 (stereo not given)	-14%	-2.9%	·	-2%
COc1ccc(CN2CC(C(=O)NCCC(C)C)CC2=O)cc1 (stereo not given)	0%	1.1%	1	1%
O=C(c1ccco1)N1CCN(Cc2cccc(F)c2)CC1	-4%	-0.2%	-4	-6%
Cc1ccc(CN2CCN(Cc3ccncc3)CC2CCO)o1 (stereo not given)	6%	1.1%	-2	-2%
CCOC(=O)Cc1c(C)nc(SC)[nH]c1=O	1%	-1.0%	14	0%
CCOC(=O)CSc1nnc(-c2ccc(OC)cc2)n1CC	3%	1.9%	-5	-3%
O=C(O)c1cc(Nc2cc(Cl)c3nonc3c2[N+](=O)[O-])ccc1O	-5%	4.6%	·	2%
Cn1c(=O)n(-c2ccc(Cl)cc2)c(=O)c2c3c(sc21)COC(C)(C)C3	-19%	-2.5%	2	-4%
CSc1nc(O)c(C(c2ccc(F)cc2)c2c(O)nc(SC)[nH]c2=O)c(=O)[nH]1	-17%	-1.4%	·	·
COc1ccc(C(=O)O/N=C(\N)c2ccc(Cl)cc2)cc1	-3%	-0.8%	·	-42%
C/C(=N\Nc1nc2ccccc2s1)c1cccs1	-8%	2.6%	13	-1%
CCc1cc2c(N3CCCCC3)ncnc2s1	39%	-0.5%	-9	-9%
CN1CCN(c2nc(-c3ccc(Cl)s3)cs2)CC1	-3%	0.8%	-2	-46%
CC(C)(C)c1ccc(C(=O)OCCN2CCCCC2)cc1	-3%	2.5%	·	-4%
Cc1ccc(S(=O)(=O)c2cnc(-c3ccccc3)nc2N2CCN(C)CC2)cc1	-11%	2.0%	-1	-1%
COc1ccc2cc(C(C)C(=O)Nc3cccc(S(=O)(=O)N(C)C)c3)ccc2c1 (stereo not given)	-6%	1.5%	·	7%
COc1cc(F)ccc1S(=O)(=O)N1CCN(C23CC4CC(CC(C4)C2)C3)CC1	1%	-2.3%	-6	3%
Cc1ccc(-c2nnc3c(C(F)(F)F)nc4ccccc4n23)cc1	10%	-0.2%	6	-11%
O=C(NCc1nnc(SCC(=O)N2CCCC2)o1)c1c(F)cccc1F	-3%	-0.5%	·	0%
COc1ccccc1NC(=O)N1CCN(C(=O)c2ccco2)CC1	-5%	-5.3%	·	-2%
C[C@@H]1C[C@H]2[C@@H]3C[C@H](F)C4=CC(=O)C=C[C@]4(C)[C@@]3(Cl)[C@@H](O)C[C@]2(C)[C@H]1C(=O)COC(=O)C(C)(C)C	14%	-0.5%	·	·
Cc1ccc(C(=O)COC(=O)c2c(C)cc(=O)oc2C)cc1[N+](=O)[O-]	2%	-3.2%	6	-9%
CC(=O)Nc1cccc(NC(=S)Nc2cccc(Cl)c2Cl)c1	-5%	-0.4%	13	-1%
CC12CCC(C(=O)NC3CCCC3)(CC1=O)C2(C)C (stereo not given)	-7%	0.2%	1	3%
CCCNC(=O)NC(=O)CSc1nncs1	-4%	?	-1	1%
CS(=O)(=O)Oc1ccc(Br)c2cccnc12	6%	1.5%	-4	-11%
CCOc1ccc(NC(=O)CC2C(=O)N(CC)C(=S)N2NC(=O)c2ccncc2)cc1 (stereo not given)	2%	3.2%	-4	11%
COc1ccc(OCCC(=O)OCC(=O)NC(=O)NC(C)C)cc1	8%	2.0%	4	0%
CCOC(=O)c1ccc(-c2c(-c3cc(OC)c(OC)c(OC)c3)noc2C)cc1F	2%	6.3%	·	18%
COC(=O)c1cnc(Oc2ccc(NC(=O)NC(=O)c3c(OC)cccc3OC)cc2)cc1C(F)(F)F	-10%	1.8%	5	27%
CCN(CC)c1cnn(C/C(=N\OC)c2ccc(Cl)cc2)c(=O)c1Br	-25%	-1.6%	-8	1%
CCOCCCn1c(SCC(=O)Nc2oc(C)c3c(C)n[nH]c(=O)c23)nnc1-c1ccncc1	10%	0.7%	·	·
CCCCNC(=O)/C(=C/c1ccco1)NC(=O)c1ccco1	0%	2.9%	·	0%
COC(=O)c1cc2c(s1)-c1ccccc1OC2	-26%	-0.6%	?	-31%
Cc1nn(C2CCS(=O)(=O)C2)c(C)c1CN(C)C(=O)c1ccc(S(=O)(=O)N(C)C)cc1 (stereo not given)	3%	1.7%	·	·
COc1ccc(OC)c(-c2csc3nnc(SCC(=O)Nc4ccc(NC(C)=O)cc4)n23)c1	17%	1.1%	0	9%
O=C(Nc1cc(=O)[nH]c(=O)[nH]1)c1cccc(C(F)(F)F)c1	1%	1.4%	·	3%
Cc1cc(C)n(-c2ccc(C(=O)Nc3ccc4c(c3)OCCO4)cc2)n1	0%	3.0%	-5	-28%
O=C(NC1CCCCCC1)C1CCN(C(=O)c2ccc(Cl)cc2)CC1	13%	0.2%	·	·
CCn1cc(S(=O)(=O)c2ccc(C)cc2)c(=O)c2cc(F)c(N3CCN(C)CC3)cc21	1%	2.9%	·	-5%

# Next part.
SMILES	Rango release inh	Rango complex inh	GLA inh pH 4.5	miR-21 FLuc
CC(C)[C@H](NC(=O)c1ccccc1)C(=O)OCC(=O)NCC1CCCO1 (stereo not given in full)	23%	-1.7%	·	·
O=C(Oc1ccc(-c2ccccc2)cc1)C1C2CCCCC21 (stereo not given)	-15%	4.9%	-16	-1%
Cc1ccc(Cn2nc(C)c(NC(=O)C3(C)CC3(Br)Br)c2C)cc1 (stereo not given)	-16%	2.5%	1	-8%
Cc1ccc(N2CC(C(=O)Nc3ccc4c(c3)OCO4)CC2=O)cc1C (stereo not given)	-7%	4.9%	·	-4%
Cc1cc(Cl)ccc1C(=O)C1CCCN(C(=O)c2cnn(C(C)C)c2)C1 (stereo not given)	0%	-1.4%	·	0%
CN(C)S(=O)(=O)c1ccc(N2CCCC2)c(C(=O)Nc2ccccc2F)c1	0%	-0.3%	·	·
COc1ccccc1C(=O)Nc1nnn(C)n1	8%	-1.8%	9	-9%
O=C(/C=C/c1ccccc1)NC(=S)NNC(=O)c1cccnc1	-16%	-1.8%	-9	-13%
COc1ccc(-c2[nH]ncc2N=Nc2ccccc2)cc1	5%	1.4%	-11	18%
O=C(O)c1ccc(-n2nc(C(F)(F)F)cc2-c2cccs2)cc1	9%	-1.2%	·	-4%
O=C(CCCOc1ccccc1)N1CCc2ccccc2C1	4%	4.7%	-14	-55%
COc1cccc(/C=C2\SC(=O)N(CC(=O)NC3C=CS(=O)(=O)C3)C2=O)c1 (stereo not given)	-3%	-0.6%	·	21%
CCOc1ccccc1OCCC(=O)NNC(=O)Cn1nc(C)cc1C	16%	1.1%	·	·
COC(=O)c1ccc(NC(=O)CCc2nnc3ccc(NCc4ccco4)nn23)cc1	2%	-1.3%	·	2%
CCN(CC(=O)Nc1c(F)cccc1F)C(=O)c1ccc2ccccc2n1	2%	3.9%	·	·
COc1cc(C2NC(=O)C(C#N)=C(S)N2c2ccccc2)ccc1OC(C)C (stereo not given)	18%	3.2%	0	-2%
OC1(c2cccc(C(F)(F)F)c2)CCN(c2ncnc3c2[nH]c2ccccc23)CC1	5%	-3.9%	-4	-5%
CCOC(=O)C[C@H]1c2cc(F)ccc2S(=O)(=O)N1Cc1ccc(OC)cc1	-1%	-1.4%	·	·
COC(=O)C1=C(C)NC(c2c(O)ccc3ccccc23)C(C(=O)OC)=C1C (stereo not given)	9%	0.8%	-1	-22%
c1ccc(C[C@H]2CNCCN2CCC23CC4CC(CC(C4)C2)C3)cc1	16%	0.7%	·	·
COC(=O)c1cncn1Cc1ccccc1	-1%	-2.8%	·	·

# Screening data deposited in PubChem by National Center for Advancing Translational Sciences (NCATS).
